# gsp ag: activates gsp, the McCune-Albright syndrome mutation | gsp mutant cells, cAMP HTRF, 30 min; control for the full effect not named in the record | Potency, µM (doses to about 76.9 µM), for the others: at the top dose activation (cAMP increase), most hits filed as activators | actives 0.13% (n = 340,000); active = well fitted activation curve with a large enough effect; inconclusive = small, poorly fitted or top-dose-only effect, or another doubt; inactive = no such curve, though single readings can be large or run the other way; cell line not stated here;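 also: phosphodiesterase inhibitor Ro 20-1724 added with compounds to block cAMP breakdown; potency is read from the fitted curve at half-maximal effect; nearly all actives have a fitted effect of over 60% in size; about a fifth of the inactives were tested at one dose only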
#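 Cells stably selected in G418 were plated at 2000/well, grown 16-24 hr, then given compounds in DMSO with the PDE inhibitor […] (300 uM solution added) for 30 min at 37C; cAMP was read by HTRF.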
# gsp antagonist: gsp mutant antagonism | Potency, µM (titrated, usually from 76.9 µM), inactives show top-dose activity change, negative = inhibition, usual class: inhibitors | AID 624288 | actives 0.4% (n = 340,000) | gsp-mutant cells, cAMP HTRF, 30 min; control for the full effect not named in the record; active = falling curve of any shape with a large fitted effect; inconclusive = falling curve, mostly with a smaller effect; inactive = flat or rising curve; cell line not stated here;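 also: intracellular cAMP measured with PDE inhibitor Ro 20-1724 present during compound exposure; potency is read from the fitted curve at half-maximal effect; % is scaled to controls: 0 for no effect and ±100 for the full control effect; nearly all actives have a fitted effect of over 65% in size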
#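 Cells, 2000/well, grown 16–24 h in DMEM 10% FBS with 0.5 mg/ml G418, then compounds plus […] (300 uM addition stock), 30 min at 37C. cAMP read by HTRF (cAMP-d2 and anti-cAMP antibody-K in lysis buffer) after 30 min RT.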
# Sfp inh: inhibitors of Bacillus subtilis Sfp phosphopantetheinyl transferase; Q9F4F7; Biochemical Sfp PPTase activity, qHTS; Potency, µM, for inactives: max response, negative = inhibition, hits mostly inhibitors; actives 3.5% (n = 310,000); AID 1490; active = well fitted inhibition curve with a large enough effect; inconclusive = small, poorly fitted or top-dose-only effect, or another doubt; inactive = no such curve, though single readings can be large or run the other way;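 also: the enzyme is Sfp with the accession as filed and its product quenches rhodamine fluorescence; potency is read from the fitted curve at half-maximal effect; 0% = enzyme reaction without inhibitor and -100% = no enzyme wells; top concentration of the series not given in the record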
#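 Compounds were incubated with enzyme (final 15 nM) for 15 min at room temperature before substrate addition started the reaction. Fluorescence at 525 nm excitation, 598 nm emission was recorded immediately and after 30 minutes.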
# TRPML1 blocker: human mucolipin-1 channel inhibition. activity change, negative = inhibition, % (concentration not given with the values). TRPML1-inducible cells, Ca2+ dye fluorescence, FDSS; stronger effect = lower value; inhibition of EC80 agonist-evoked calcium signal. actives 0.02% (n = 390,000); in the data active means activity change below about -50%; inconclusive means about -30% to -50%; inactive means above about -30%;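 also: stimulus is agonist 54-4 at its EC80 concentration; % is scaled to controls: 0 for no effect and ±100 for the full control effect; compound concentration not given in the record; the text of the record puts the active cut at -80%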
# Target sequence (Q9GZU1 whole entry, looked up): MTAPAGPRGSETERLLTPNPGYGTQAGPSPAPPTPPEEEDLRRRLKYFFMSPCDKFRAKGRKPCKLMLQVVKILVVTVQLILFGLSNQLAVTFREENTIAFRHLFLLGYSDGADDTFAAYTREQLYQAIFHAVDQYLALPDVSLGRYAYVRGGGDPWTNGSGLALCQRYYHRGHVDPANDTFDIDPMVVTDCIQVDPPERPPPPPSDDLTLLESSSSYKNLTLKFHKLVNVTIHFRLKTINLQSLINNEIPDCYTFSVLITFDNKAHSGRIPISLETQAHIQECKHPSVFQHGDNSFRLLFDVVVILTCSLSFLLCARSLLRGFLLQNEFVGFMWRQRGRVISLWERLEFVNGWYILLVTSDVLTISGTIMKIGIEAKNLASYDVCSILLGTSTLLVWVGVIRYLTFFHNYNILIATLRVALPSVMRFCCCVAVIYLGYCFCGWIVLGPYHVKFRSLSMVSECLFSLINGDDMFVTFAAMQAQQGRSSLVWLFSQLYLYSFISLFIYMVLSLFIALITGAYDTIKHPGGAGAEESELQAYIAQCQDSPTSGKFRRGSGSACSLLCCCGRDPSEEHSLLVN
#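 TRPML1-DL cells, Tet-induced overnight (~16 h, 37 °C) at 1,500 cells/well, were loaded with Ca8 no-wash dye plus quencher for 45-90 min at room temperature. Compounds were pinned during FDSS kinetic reading; agonist 54-4 at EC80 (4 uM final) then added.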
# TRPV1 potentiator: human TRPV1 potentiation; Q8NER1; TRPV1-expressing cells, Fluo-8 calcium influx, capsaicin EC20 potentiation; host cell line not named in the record; control for the full effect not named in the record; potentiation, % at 8.33 µM; actives 0.02% (n = 320,000); AID 540277; active means potentiation above 80%; inconclusive means 30% to 80%; inactive means below 30%; also: 0% is about no effect
#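 TRPV1-expressing cells were cultured overnight at 35.5C and loaded with Fluo-8 calcium dye for 40 to 90 min at room temperature. After a 10 s baseline, compound was added and calcium influx was read kinetically for 3 min (ex 480/em 520 nm).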
# ClpP mod: qHTS Assay for Activators of ClpP. ATP-dependent Clp protease proteolytic subunit (Bacillus subtilis (strain 168)), P80244. purified B. subtilis ClpP, FRET peptide cleavage, 20 min. Potency, µM (titrated, usually from 57.5 µM), for inactives: at the top dose activity change, negative = active. actives 1.9% (n = 340,000). AID 651965, 2013; active = well fitted falling curve with a large enough effect; inconclusive = small, poorly fitted or top-dose-only effect; inactive = no such curve, though single readings can be large or run the other way; also: potency is read from the fitted curve at half-maximal effect; the source files actives as falling curves though it sought activators and does not explain the sign; nearly all actives have a fitted effect of over 65% in size; many hits overshoot -100%
# Target sequence (P80244 whole entry, looked up): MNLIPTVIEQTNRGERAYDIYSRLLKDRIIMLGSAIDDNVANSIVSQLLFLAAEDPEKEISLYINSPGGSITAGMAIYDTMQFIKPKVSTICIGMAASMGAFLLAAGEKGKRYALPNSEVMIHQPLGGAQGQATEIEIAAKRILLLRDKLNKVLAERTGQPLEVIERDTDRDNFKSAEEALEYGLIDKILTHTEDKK
#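 Buffer: 100 mM Tris/HCl pH8, 100 mM KCl, 0.05% low protease BSA, 2.5% glycerol, 0.01% Tween-20. ClpP 10 microg/mL final; 20 min RT; delta FRET normalized to ADEP and DMSO controls.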
# Menin-MLL FL inh: inhibitors of human menin-MLL interaction, wild-type MLL peptide; Fluorescence polarization, fluorescein-MLL peptide displacement from menin; FP activity change, % at 61.4 µM; 290,000 tested, under 10 active; AID 1766; inconclusive = falling polarisation curve, or a change in total fluorescence; inactive = total fluorescence flat and polarisation flat or rising; no compound was filed as active; the % refers to the polarisation; negative = inhibition;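 also: % of control where 0% means no effect; inhibitors lower the polarisation; unlabelled MLL peptide was the positive control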
# * = called active by the depositor; ? = inconclusive; . = no result given; & = joins results of further samples; [ ] = dose if it differs, or a comment.
SMILES,gsp ag,gsp antagonist,Sfp inh,TRPML1 blocker,TRPV1 potentiator,ClpP mod,Menin-MLL FL inh
CCc1nc(N2CCN(C(C)=O)CC2)c2c3c(sc2n1)CCCC3,0%,-14%,7%,.,-15,-4.2%,-2.0
Cn1c(=O)n(-c2ccccc2)c(=O)c2c3c(sc21)COC(C)(C)C3,-3%,1%,13%,4,-2,-1.0%,2.1
Cc1oc(-c2cccc3ccccc23)nc1CN1CCC[C@H]1CO,15%,11%,-3%,-3,4,3.7%,-3.0
COc1cc2c(cc1OC)CN(Cc1cc(=O)oc3c(C)c(C)ccc13)CC2,-29%[15.4 µM],-20%,1%,-17,0,0.7%,11
COc1ccc(C(=O)NCCCN2CCOCC2)cc1S(=O)(=O)N1CCCc2ccccc21,-9%[15.4 µM],7%,-12%,-7,3,1.7%,-2.8
O=C(NCc1ccc2c(c1)OCO2)c1cc2c(s1)CSC2,-3%,-9%,-8%,-2,-21,-9.4%,4.8
O=C(CCc1c[nH]c2ccccc12)N1CCN(S(=O)(=O)c2ccc(F)cc2)CC1,8%[15.4 µM],-10%,.,-15,7,.,.
CC(=O)c1ccc(N2CCN(C(=O)c3ccc4c(c3)OCO4)CC2)cc1,-43%[inhibitor],-6%,9%,24,0,-9.4%,-5.4
CC(C(=O)N1CCCc2ccccc21)N1CCN(c2ccccn2)CC1 (stereo not drawn),-10%,13%,?,-6,1,-4.3%,-0.1
Cc1ccc(S(=O)(=O)N2CCC[C@H]2C(=O)NCc2ccccc2Cl)cc1,-16%,-9%,.,-13,.,1.5%,.
CCN1CCCC1CNCC(O)COc1ccc(C(C)(C)C)cc1C (stereo not drawn),-9%[15.4 µM],5%,-35%,-8,3,.,-3.9
COc1ccc(S(=O)(=O)N2CCC(C(=O)Nc3nnc(CCN4CCCCC4)s3)CC2)cc1,-39%[inhibitor],3%,-2%,8,2,0.9%,1.6
O=Cc1ccc(-c2cccc([N+](=O)[O-])c2)o1,-1%[15.4 µM],-6%,0%,5,-1,1.3%,0.7
CCN(CCO)Cc1csc2ccc(Br)cc12,19%,?,-14%,13,10,0.7%,4.1
O=C(NNC(=O)C1CCCO1)c1ccc([N+](=O)[O-])cc1 (stereo not drawn),11%[15.4 µM],9%,16%,18,9,.,0.3
O=C(Nc1ccc(C(=O)N2CCCC2)cc1)c1cc(F)c(F)cc1Cl,-67%[inhibitor],.,.,2,.,-1.6%,.
COc1cccc(NC(=O)CN(C)CC(=O)Nc2ccc(C)cc2Cl)c1,0%[15.4 µM],9%,45µM*,13,-17,.,-4.8
O=c1c2ccccc2nc(-c2ccc(Cl)cc2)n1C1CCS(=O)(=O)C1 (stereo not drawn),23%,0%,.,-4,.,2.6%,.
Clc1ccc(-c2c[n+](Cc3cccc(Cl)c3)c3n2CCC3)cc1,3%,5%,1%,-5,0,1.1%,4.3
Cc1cccc(C)c1NC(=O)CNC(=O)Cn1nc(C)c(C)c(C#N)c1=O,9%[15.4 µM],1%,.,-7,3,-1.0%,.
CCC(c1nnnn1C1CCCCC1)N1CCN(C2CCCC2)CC1 (stereo not drawn),16%,-2%,-13%,-4,16,1.6%,-0.9
CCN(CC)S(=O)(=O)C1CCS(=O)(=O)C1 (stereo not drawn),12%,3%,8%,5,-3,-1.1%,-0.4
Cc1cccc(C(=O)N2CCC(c3nc4ccccc4s3)CC2)c1,2%,-16%,-12%,-6,-13,2.5%,-1.6
Cc1c(NC(=O)COC(=O)c2ccc(Cl)nc2)c(=O)n(-c2ccccc2)n1C,2%,8%,.,70,.,.,.
COc1ccc(/C=C/C(=O)c2ccc(C(=O)/C=C/c3ccc(OC)c(OC)c3)cc2)cc1OC,11%,-4%,7%,-1,18,-1.8%,?
Cn1c(C(C#N)/C(=N\S(=O)(=O)c2cccs2)c2ccccc2)nc2ccccc21 (stereo not drawn),27%,0%,11%,-9,-2,-0.6%,?
O=C(O)C1CCc2nc(NCc3ccccc3)nc(NCc3ccccc3)c2C1 (stereo not drawn),2%,13%,.,1,.,.,.
COCCNS(=O)(=O)c1cccc2cccnc12,-44%[inhibitor],3%,17%,13,.,0.5%,26
C[C@H](CCC(=O)O)[C@H]1CC[C@H]2[C@@H]3[C@H](O)C[C@@H]4C[C@H](O)CC[C@]4(C)[C@H]3C[C@H](O)[C@]12C,.,-1%&-9%&1%,4%,0&-4,-4&-7,0.7%&2.0%&-0.5%,-8.8
Cc1ccccc1-c1nc2c(s1)CCc1onc(-c3ccc(Cl)cc3)c1-2,12%,?,.,-8,-20,?,.
CCC(C)(C)NC(=O)C(c1ccccn1)N(C(=O)c1csnn1)c1ccc(C)c(C)c1 (stereo not drawn),-16%,-16%,5%,-3,-6,-1.9%,5.1
NS(=O)(=O)c1ccc(CCNC(=O)COC(=O)CCc2c[nH]c3ccccc23)cc1,29%,6%,.,-17,.,-1.5%,.
COCCCn1c(SCC(=O)NC2CCCC2)nnc1-c1ccccc1,4%[15.4 µM],14%,10%,-17,6,0.8%,2.0
Cc1c(C(=O)N/N=C/C(C)C)[nH]c2ccc([N+](=O)[O-])cc12,22%[15.4 µM],-4%,3%,0,-6,.,11
O=C(O)c1[nH]c2ccccc2c1C(c1cccc(O)c1)c1c(C(=O)O)[nH]c2ccccc12,?,21%,3%,-16,-2,-4.8%,-8.6
CCCCCCNCC1OCc2ccccc2CO1,?,-1%,9%,7,-1,1.4%,7.4
COc1ccc(N2CCN(C3CCCN(C(=O)CN4CCCC4=O)C3)CC2)cc1 (stereo not drawn),-7%,0%,11%,-6,9,-6.9%,0.4
CCOC(=O)c1sc(Nc2nc(OC)cc(OC)n2)nc1C,10%[15.4 µM],-13%,?,-16,-7,.,6.2
Cc1ccc(S(=O)(=O)NC(=O)Nc2nnc(C)s2)cc1,?,20%,21%,15,5,1.3%,-0.4
COc1ccc(C(=O)NC(=S)N2CCN(c3ccc([N+](=O)[O-])cc3)CC2)cc1,-20%,11%,17%,-23,-10,1.2%,.
CCN(CC)CCNc1oc(-c2ccccc2)nc1S(=O)(=O)c1ccccc1,-4%,6%,.,-7,.,-9.7%,.
COc1ccc(C(CNC(=O)CSc2ccccc2)N2CCOCC2)cc1 (stereo not drawn),-46%[inhibitor],.,.,-5,.,-0.4%,.
CCCCC(=NCCc1c(C)[nH]c2ccc(OC)cc12)C1=C(O)CC(c2ccccc2)CC1=O (stereo not drawn),12%[15.4 µM],-20%,13%,-8,-6,0.7%,-0.2
COC(=O)C1(Cc2ccc3c(c2)CCC3)Cc2ccc3c(c2C1=O)CCC3 (stereo not drawn),-1%,0%,.,1,.,1.1%,.
CCN(CC)S(=O)(=O)c1ccc(C)c(NC(=S)NC2CCCCC2)c1,19%[15.4 µM],-5%,18%,32,-4,.,-5.5
CC(C)NS(=O)(=O)c1ccc(OCC(=O)Nc2ccc3c(c2)OCO3)c(Cl)c1,?,-14%,19%,9,8,3.3%,-0.8
CCN1CCN(C(=O)C2CCN(S(=O)(=O)c3ccc(Br)cc3)CC2)CC1,-38%[inhibitor],6%,8%,-4,3,-3.3%,.
Cc1cc(C)n2c(SCC(=O)Nc3cc(C)on3)nnc2n1,22µM*,10%,10%,-4,16,-22%,1.5
Cc1ccc2nc(NCc3ccc(F)cc3)c3nncn3c2c1,?,7%,17%,1,27,-0.5%&-2.5%,0.7
O=C(NC(Cc1ccccc1)C(=O)N1CCN(c2ccccn2)CC1)c1ccco1 (stereo not drawn),-3%,5%,22%,-11,2,?,-1.0
Nc1nc(COc2ccc3ccccc3c2)cs1,6%,-7%,-9%,-11,-15,-2.5%,-6.4
Cc1cccc(-n2cnc(C(=O)NNC(=S)Nc3ccccc3)c2)n1,3%,-8%,14%,-2,12,.,5.2
COc1ccc(CCNC(=S)NC(=O)c2ccccc2)cc1C,3%,-9%,-11%,?,7,-1.7%,8.8
COc1cc(NC(=O)CSCc2ccc(Cl)cc2)c(C(=O)O)cc1OC,0%,-12%,0%,-2,15,0.4%,0.1
COC(=O)CN1C(=S)N(C)C(=O)/C1=C/c1cccs1,-54%[inhibitor],-7%,27%,8,1,5.3%,-0.1
Cc1nn2cc(-c3ncc(C(F)(F)F)cc3Cl)cnc2c1Br,0%[15.4 µM],-12%,12%,24,0,.,0.0
O=C(NCCc1ccccn1)c1cc(-c2ccc(Cl)cc2)nc2ccccc12,0%,?,-13%,62,-8,?,5.0
COc1ccc(C(C)=O)cc1COC(=O)CNC(=O)C1CCCCC1,-8%,-1%,.,8,.,.,.
O=C(Cc1n[nH]c(=O)[nH]c1=O)N/N=C/c1c(O)ccc2ccccc12,28%[15.4 µM],4%,-2%,-8,2,.,?
COc1ccc(C2CC(=O)C3=C(C2)Nc2ccccc2NC3c2coc3ccccc3c2=O)cc1OC (stereo not drawn),-51%[inhibitor],-8%,6%,-3,-2,0.6%,4.7

# Some of these compounds in order of their number in Sfp inh, largest number first:
mol | gsp ag | gsp antagonist | Sfp inh | TRPML1 blocker | Menin-MLL FL inh
COc1cc(NC(=O)CSCc2ccc(Cl)cc2)c(C(=O)O)cc1OC | 0% | -12% | 0% | -2 | 0.1
O=C(Cc1n[nH]c(=O)[nH]c1=O)N/N=C/c1c(O)ccc2ccccc12 | 28%[15.4 µM] | 4% | -2% | -8 | ?
Nc1nc(COc2ccc3ccccc3c2)cs1 | 6% | -7% | -9% | -11 | -6.4

# Following part
SMILES,gsp ag,gsp antagonist,Sfp inh,TRPML1 blocker,TRPV1 potentiator,ClpP mod,Menin-MLL FL inh
Cc1ccc(S(=O)(=O)NCCN2CCOCC2)c(C)c1,3%,4%,3%,-4,-3,0.4%,7.6
Cc1ccc(CNC(=O)C2CCN(c3nnc(N4CCCC4=O)s3)CC2)cc1,12%,-7%,13%,-2,14,-0.8%,0.8
COc1cccc(NC(=O)CSc2nnc(Cc3ccc(OC)c(OC)c3)o2)c1,0%[15.4 µM],-8%,-1%,-1,-2,.,1.1
COc1cc(OC)c(NC(=O)CS(=O)(=O)Cc2nc(-c3ccc(C)cc3)oc2C)cc1Cl,-21%,-9%,-12%,-1,-2,-1.3%,2.2
CCNC(=O)NC(=O)C(C)OC(=O)c1oc2ccccc2c1CSC1CCCCC1 (stereo not drawn),-8%,-19%,9%,-20,5,0.2%,-2.9
